Source: PubChem BioAssay (National Center for Advancing Translational Sciences (NCATS))
PINK1 expr mod = A Quantitative High throughput Screen to Identify Chemical Modulators of PINK1 Expression; PINK1 immunofluorescence, high-content cytometry, 24 h; Potency, µM (highest dose often 76.6 µM), inactives show at the top dose activation (PINK1 increase), most hits filed as activators; actives 0.2% (n = 410,000); active = well fitted activation curve with a large enough effect; inconclusive = small, poorly fitted or top-dose-only effect; inactive = flat fitted curve, though single readings scatter; cell line not stated here;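 also: potency is read from the fitted curve at half-maximal effect; % of control where 0% means no effect; nearly all actives have a fitted effect of over 65% in size; a mitochondrial uncoupler was the plate control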
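Cells are seeded, rested 12 hours, then given compound at five concentrations or DMSO for 24 hours. After fixation, blocking and antibody staining, PINK1 amount and mitochondrial localization are scored; CCCP serves as control.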
TRPML1 agonist = qHTS for Agonists of the Human Mucolipin Transient Receptor Potential 1 (TRPML1); TRPML1-expressing cells, Ca2+ dye fluorescence, FDSS; host cell line not named in the record; reference of the full effect not given here; activation, % (no concentration beside the values); actives 0.12% (n = 410,000); in the data active = activation above about 50%; inconclusive = about 30% to 50%; inactive = below about 30%; also: 0% is about no effect; the text of the record puts the active cut at 80%
Target sequence (Q9GZU1 whole entry, looked up): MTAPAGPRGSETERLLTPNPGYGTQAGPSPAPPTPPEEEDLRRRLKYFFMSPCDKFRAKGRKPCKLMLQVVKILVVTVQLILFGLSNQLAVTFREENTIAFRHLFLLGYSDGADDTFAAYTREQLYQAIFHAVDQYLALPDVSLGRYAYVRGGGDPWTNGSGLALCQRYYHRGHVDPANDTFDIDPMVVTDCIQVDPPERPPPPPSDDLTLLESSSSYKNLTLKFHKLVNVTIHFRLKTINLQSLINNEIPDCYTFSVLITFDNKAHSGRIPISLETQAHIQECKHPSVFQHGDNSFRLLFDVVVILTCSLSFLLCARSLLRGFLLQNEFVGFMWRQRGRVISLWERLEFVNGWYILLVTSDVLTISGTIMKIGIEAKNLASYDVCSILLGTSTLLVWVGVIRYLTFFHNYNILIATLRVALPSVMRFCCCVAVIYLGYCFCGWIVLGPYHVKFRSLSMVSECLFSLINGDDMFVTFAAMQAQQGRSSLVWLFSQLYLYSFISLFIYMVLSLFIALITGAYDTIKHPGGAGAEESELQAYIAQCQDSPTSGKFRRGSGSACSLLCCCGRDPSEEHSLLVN
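In this qHTS format, compounds were pin-transferred onto Ca8-dye-loaded TRPML1-DL cells induced with Tet overnight, and intracellular Ca2+ fluorescence was recorded kinetically for 110 s after a 10 s baseline. A subsequent 4uM final 54-4 (EC80) addition followed by a second 110 s read served as the antagonist phase.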
TRPML1 blocker = qHTS for Inhibitors of the Human Mucolipin Transient Receptor Potential 1 (TRPML1) | actives 0.02% (n = 390,000) | Mucolipin-1 (Homo sapiens), Q9GZU1 | TRPML1-inducible cells, Ca2+ dye fluorescence, FDSS; hits give low values; inhibition of EC80 agonist-evoked calcium signal | activity change, negative = inhibition, % (no concentration beside the values); in the data active means activity change below about -50%; inconclusive means about -30% to -50%; inactive means above about -30%;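 also: stimulus is agonist 54-4 at its EC80 concentration; % is scaled to controls: 0 for no effect and ±100 for the full control effect; compound concentration not given in the record; the text of the record puts the active cut at -80%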
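Tet-induced TRPML1-DL cells loaded with Ca8 no-wash calcium dye were read kinetically on FDSS. Compound addition was followed by EC80 agonist 54-4 (4 uM final); inhibition was read over 110 s.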
ClpP mod = qHTS Assay for Activators of ClpP; ATP-dependent Clp protease proteolytic subunit (Bacillus subtilis (strain 168)), P80244; purified B. subtilis ClpP, FRET peptide cleavage, 20 min; Potency, µM (highest dose often 57.5 µM), without a hit: at the top dose activity change, negative = active; actives 1.9% (n = 340,000); AID 651965, 2013; active = well fitted falling curve with a large enough effect; inconclusive = small, poorly fitted or top-dose-only effect; inactive = no such curve, though single readings can be large or run the other way; also: potency is read from the fitted curve at half-maximal effect; the source files actives as falling curves though it sought activators and does not explain the sign; nearly all actives have a fitted effect of over 65% in size; many hits overshoot -100%
Target sequence (P80244 whole entry, looked up): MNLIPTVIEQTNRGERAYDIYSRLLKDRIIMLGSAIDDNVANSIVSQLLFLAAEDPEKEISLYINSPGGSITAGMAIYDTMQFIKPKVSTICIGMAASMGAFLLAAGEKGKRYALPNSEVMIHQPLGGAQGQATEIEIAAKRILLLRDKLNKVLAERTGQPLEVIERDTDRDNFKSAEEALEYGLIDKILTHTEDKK
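Buffer: 100 mM Tris/HCl pH8, 100 mM KCl, 0.05% low protease BSA, 2.5% glycerol, 0.01% Tween-20. ClpP 10 microg/mL final; 20 min RT; delta FRET normalized to ADEP and DMSO controls.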
Sfp inh = qHTS Assay for Inhibitors of Bacillus subtilis Sfp phosphopantetheinyl transferase (PPTase); Potency, µM, inactives show max response, negative = inhibition, actives largely listed as inhibitors; Biochemical Sfp PPTase activity, qHTS; actives 3.5% (n = 310,000); 4'-phosphopantetheinyl transferase ffp (Bacillus subtilis), Q9F4F7; active = well fitted inhibition curve with a large enough effect; inconclusive = small, poorly fitted or top-dose-only effect, or another doubt; inactive = no such curve, though single readings can be large or run the other way;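 also: the enzyme is Sfp with the accession as filed and its product quenches rhodamine fluorescence; potency is read from the fitted curve at half-maximal effect; 0% = enzyme reaction without inhibitor and -100% = no enzyme wells; top concentration of the series not given in the record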
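After 15 min at room temperature with compound, 15 nM Sfp received 5 uM rhodamine-CoA plus 12.5 uM BHQ-2-ybbR (50 mM Hepes pH 7.6, 10 mM MgCl2). Rate came from the fluorescence difference over 30 min, ex 525/em 598 nm.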
TRPV1 PAM = HTS Assay for Compounds that Act as Potentiators of the Vanilloid Receptor 1; Transient receptor potential cation channel subfamily V member 1 (Homo sapiens), Q8NER1; actives 0.02% (n = 320,000); TRPV1-expressing cells, Fluo-8 calcium influx, capsaicin EC20 potentiation; host cell line not named in the record; control for the full effect not named in the record; AID 540277, 2011; potentiation, % at 8.33 µM; active means potentiation above 80%; inconclusive means 30% to 80%; inactive means below 30%; also: 0% is about no effect
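TRPV1-expressing cells were cultured overnight at 35.5C and loaded with Fluo-8 calcium dye for 40 to 90 min at room temperature. After a 10 s baseline, compound was added and calcium influx was read kinetically for 3 min (ex 480/em 520 nm).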
Menin-MLL FL inh = qHTS Assay for Inhibitors Targeting the Menin-MLL Interaction in MLL Related Leukemias: Competition With Fluorescein Labeled MLL-derived Peptide; FP activity change, % at 61.4 µM; 290,000 tested, under 10 active; Fluorescence polarization, fluorescein-MLL peptide displacement from menin; inconclusive = falling polarisation curve, or a change in total fluorescence; inactive = total fluorescence flat and polarisation flat or rising; no compound was filed as active; the % refers to the polarisation; negative = inhibition;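 also: % of control where 0% means no effect; inhibitors lower the polarisation; unlabelled MLL peptide was the positive control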
Active calls of the source: *; ? = inconclusive; . = not tested or not shown; & = joins results of further samples; [ ] = remark or other dose. No enrichment for hits, and some 4.4% of all compounds hit somewhere here.

smiles	PINK1 expr mod	TRPML1 agonist	TRPML1 blocker	ClpP mod	Sfp inh	TRPV1 PAM	Menin-MLL FL inh
Cc1cccc(N2C(=O)SC(N(C)c3ccccc3)C2=O)c1 (stereo not given)	0.0%	2.3	-5	-3.0%	16%	1	6.3
O=C(Nc1ccccc1)Nc1ccc2snnc2c1	?	0.2	10	1.3%	-15%	-2	-4.8
CN(C)CCCn1c(N)c(S(=O)(=O)c2ccccc2)c2nc3ccccc3nc21	15%	0.2	-6	.	-4%	6	2.1
CCC(Sc1nc2cc(OC)c(OC)cc2c(=O)n1Cc1ccco1)C(=O)NCCOC (stereo not given)	.	-0.5	8	-1.9%	8%	5	-0.9
CCOC(=O)C1CCCN(Cc2ccc(OC)cc2OC)C1 (stereo not given)	.	-0.2	1	3.0%	-10%	-9	-5.9
COc1ccc(CNC(=O)C2CCC(=O)N(CCCN3CCCC3=O)C2)cc1 (stereo not given)	-1.4%	-0.5	13	1.4%	25%	2	.
Cc1cc(N2CCC(C(=O)Nc3ccc(F)cc3C)CC2)n2nc(C)c(-c3ccc(Cl)cc3)c2n1	6.5%	-0.4	-13	1.5%	.	.	.
CCCCn1nc(C(=O)Nc2ccc(S(=O)(=O)Nc3ncccn3)cc2)c2ccccc2c1=O	0.8%	2.0	9	.	2%	-8	0.7
O=S(=O)(Nc1nc2ccccc2s1)c1cnc(Cl)c(Br)c1	?	0.5	26	.	6%	7	-1.0
C[C@H]1CN=C(Nc2ccccc2)N1CCC1CCCCC1	2.6%	-0.7	31	-0.4%	-11%	25	-0.2
O=C(NCc1ccccc1Cl)NC(=O)c1ccccc1	10%	2.6	-12	0.3%	27%	-9	1.7
O=C(O)CCCCCNC(=O)/C(=C\c1ccco1)NC(=O)c1ccco1	4.1%	.	.	-1.2%	-15%	10	-1.9
Cc1c(/C=C/C(=O)c2ccccc2O)cnn1C	-0.3%	1.0	-20	9.0%	4%	-15	1.5
COc1ccc(NC(=O)Nc2ccccc2C(N)=O)cc1	0.6%	0.1	-2	2.0%	13%	3	1.0
O=C(Nc1nc(OCCN2CCCC2=O)cnc1/C=C\c1ccccc1)c1cc2ccccc2s1	2.0%	-0.2	.	-30%	.	.	.
COc1cccc2[nH]c(C(=O)NC(C)c3ccccc3)cc12 (stereo not given)	-0.7%	1.9	12	4.0%	4%	5	-4.6
Cc1ccccc1C(=O)OC1CCN(C)CC1	1.9%	-0.1	4	0.4%	18%	13	0.0
CCN1CCc2c(C#N)c(N3CCCCC3)nc(N3CCOCC3)c2C1	1.1%	-0.9	16	8.9µM*	-6%	-8	?
Cc1cccc(CN2CCSCC2)c1	0.5%	-0.4	-14	.	-10%	5	-4.0
C=CCc1cccc(OC)c1OCCOCCn1ccnc1	-3.1%	-1.1	13	-1.0%	-75%	2	-2.1
c1ccc(CN2CCN(Cc3nnc(-c4ccccc4)o3)CC2)cc1	-0.7%	-1.0	-5	.	24%	-7	7.9
Cc1ccc(S(=O)(=O)Nc2ccccc2)cc1C(=O)N1CCCC1	-1.7%	0.8	13	-2.8%	7%	1	.
CCN(CC)c1ccc(/C=c2/sc3nnc(-c4ccccc4C)n3c2=O)cc1	.	14	-10	-0.2%	-6%	6	?
CCn1c(CCc2ccccc2)nc2ccccc21	1.9%	0.1	-5	.	-7%	-22	-7.8
COc1cc(/C=C(\C#N)c2ccccn2)ccc1OCC(=O)Nc1ccc(Br)cc1	3.8%	0.0	33	1.1%	-35%	2	18
Cc1ccc(Cl)cc1NC(=O)CN1CCN(S(=O)(=O)N2CCC(C)CC2)CC1	2.3%	0.3	-2	.	7%	1	4.3
CC(=O)Nc1ccc(Nc2ncnc3c2c(-c2ccccc2)cn3-c2ccccc2)cc1	3.0%	-0.2	15	-12%	.	.	.
COc1ccccc1C(CC(=O)O)NS(=O)(=O)c1ccc2c(c1)N(C(C)=O)CC(C)O2 (stereo not given)	3.2%	3.8	4	0.4%	17%	-3	.
O=C1CC(N2CCN(c3ccccc3)CC2)C(=O)N1c1cccc(Br)c1 (stereo not given)	-0.2%	0.6	0	-0.7%	6%	7	-5.4
CCOC(=O)CNC(=O)c1ccc2[nH]c3ccccc3c2c1	1.2%	0.2	9	4.3%	2%	7	-1.0
Cc1cccc(C)c1NC(=S)N(CCCN1CCCCC1)Cc1ccco1	0.1%	0.0	18	.	16%	12	-5.0
COc1ccc(Cl)c(Cn2c(NCCN)nc3c2c(=O)n(C)c(=O)n3C)c1	-0.8%	-0.7	24	-2.8%	.	.	.
Oc1ccc(C=Nc2cccc3ccccc23)c(O)c1	0.7%	-0.2	-3	.	-40%	11	15
CCOC(=O)c1c(C)[nH]c(C)c1S(=O)(=O)NCC(=O)NCc1cccc(Br)c1	1.7%	0.9	0	0.8%	.	.	.
CCOC(=O)c1cn[nH]c1N	0.8%	-0.7	24	-1.5%	12%	9	32[activator]
COC(=O)c1ccccc1NC(=O)c1cc([N+](=O)[O-])nn1Cc1ccccc1	6.5%	1.4	17	-1.8%	8%	2	-0.9
Cc1c(Cl)cccc1NC(=O)CCNC(=O)N1CC(=O)Nc2ccccc21	0.1%	-0.5	-30	-0.9%	0%	7	0.6
COc1cccc(NC(=O)c2sc(-n3nc(C)c(Cc4ccccc4Cl)c3C)nc2C)c1	0.5%	0.6	-2	1.5%	.	.	.
CC(=O)NC1C(=O)N=C(SCC(=O)NC2CCCCC2)NC1=O (stereo not given)	.	-0.3	-2	-7.9%	-8%	-2	5.3
Cc1cc(C(=O)N2CCCC(C)(C(=O)NS(=O)(=O)C3CC3)C2)n(C(C)(C)C)n1 (stereo not given)	0.5%	-0.4	.	-1.2%	.	.	.
Cc1cccc(OCC(=O)NC(=S)NNC(=O)c2ccncc2)c1	-1.3%	0.0	4	-2.5%	18µM*	18	.
c1ccc2c(c1)-c1ccccc1C2N1CCOCC1	2.5%	1.2	-11	.	.	.	.
CCOc1ccc2nc(NC(=O)c3cnc(C)cn3)sc2c1	0.5%	1.0	0	-2.0%	-25%	-5	0.5
O=C(NC1CCCC1)c1ccc(Br)c(S(=O)(=O)N2CCCCC2)c1	0.8%	2.0	5	1.3%	19%	0	.
CC(Oc1ccc2ccc(=O)oc2c1)C(=O)NC1CCN(Cc2ccccc2)CC1 (stereo not given)	-1.5%	0.8	5	4.9%	16%	-1	-0.9
CCc1cccc(C)c1NC(=S)NCc1ccc2c(c1)cc(C)n2C	1.8%	0.3	-1	-0.9%	9%	-2	5.7
CCCCn1nnnc1C1(C)CCC(=O)N1CCOC (stereo not given)	0.6%	-0.9	.	-0.7%	.	.	.
O=C(Cn1nc(N2CCN(c3ccccc3)CC2)ccc1=O)NCc1cccc(Cl)c1	1.6%	1.9	0	-1.1%	.	.	.

In the list so far, these contain an NH in an aromatic ring:
smiles	PINK1 expr mod	TRPML1 agonist	TRPML1 blocker	ClpP mod	Sfp inh	TRPV1 PAM	Menin-MLL FL inh
COc1cccc2[nH]c(C(=O)NC(C)c3ccccc3)cc12 (stereo not given)	-0.7%	1.9	12	4.0%	4%	5	-4.6
CCOC(=O)CNC(=O)c1ccc2[nH]c3ccccc3c2c1	1.2%	0.2	9	4.3%	2%	7	-1.0
CCOC(=O)c1c(C)[nH]c(C)c1S(=O)(=O)NCC(=O)NCc1cccc(Br)c1	1.7%	0.9	0	0.8%	.	.	.
CCOC(=O)c1cn[nH]c1N	0.8%	-0.7	24	-1.5%	12%	9	32[activator]

Next part.
smiles	PINK1 expr mod	TRPML1 agonist	TRPML1 blocker	ClpP mod	Sfp inh	TRPV1 PAM	Menin-MLL FL inh
COc1cc([N+](=O)[O-])ccc1-c1ccc(/C=N/NC(=O)c2ccccc2O)o1	.	.	.	.	4%	-1	28
O=C(CC1CCCC1)N1CCN(S(=O)(=O)c2ccc(F)cc2)CC1	-0.8%	0.3	7	-0.3%	.	-23	.
CCOc1ccc(OCCC(=O)NNC(=O)c2cc(C)oc2C)cc1	2.0%	-0.1	36	-1.3%	.	-4	.
CN(CC(O)COc1ccc(OCC(O)CN(C)C2CCCCC2)cc1)C1CCCCC1 (stereo not given)	-2.1%	-0.1	-13	-1.4%	9%	3	5.5
CCCc1cc2c(-c3ccccc3)cc(=O)oc2cc1OCc1ccc(C(=O)O)o1	0.2%	0.8	15	.	-29%	2	2.6
O=C1c2ccccc2C(=O)N1CCCCN(C(=O)c1ccco1)c1ccc(Cl)cc1	-1.2%	0.3	-3	1.3%	-19%	8	0.6
COC(=O)CCC(=O)OC1(C)C(=O)C2=CN(C(CO)CO)C(c3ccc(OC)cc3)=CC2=C(Br)C1=O (stereo not given)	.	.	.	.	1%&-28%	-18	?
COc1ccc(S(=O)(=O)N2CCCCCC2)cc1C(=O)N(C)Cc1ccccc1F	-1.2%	-0.4	-3	-3.5%	.	-6	.
O=C(NC1CCCCC1)C(c1ccccc1)N1CCc2ccccc21 (stereo not given)	5.0%	-0.7	1	-0.3%	-11%	.	6.9
COc1ccc(C)cc1NC(=O)c1cccc(C(=O)Nc2cc(C)ccc2OC)n1	4.6%	-0.5	1	-2.6%	?	6	0.8
O=C(O)c1nccnc1C(=O)Nc1ccccc1-c1ccccc1	0.6%	0.2	21	.	8%	13	3.7
